# Screening results from PubChem.
# HCMV UL50-53 inh – inhibitors of HCMV UL50-UL53 interaction, biochemical, HTRF. inhibition, % (concentration not given with the values). normalized percent inhibition. HCMV UL50-UL53 nuclear egress complex (human cytomegalovirus). 190,000 tested, 0.15% active;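 active means both replicates at 50% or more, plus weaker picks with an unusually low signal ratio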;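 further: stock transfer was 100 nL into about 20 µL; 0% = negative control wells and 100% = wells with untagged competitor protein; inactives centre near -12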
# An asterisk follows results filed as active; & = joins results of further samples. These rows are one share of the data (hit frequency here may not be typical).
SMILES,HCMV UL50-53 inh
CCCCC(CC)CN1CCC(n2cc(CNC)nn2)CC1 (centres undefined),-21
CCc1cc2c(=O)c(-c3ccccc3)coc2cc1O,-20
NC(=O)NCc1cn(CC2CCN(C(=O)C3CCCCCC3)CC2)nn1,10
Cc1cc(C)c(S(=O)(=O)Cc2ccccc2)c(=O)[nH]1,-9
Cc1ccc(-c2nnc(SCC(=O)NC3CCCCC3)o2)cc1,9
Cc1ccc(CNC(=O)N2CC=C(c3c[nH]c4ccccc34)CC2)cc1,6
COC(=O)c1ccc(/C(O)=C(\C#N)c2nc3ccccc3s2)cc1,-4
COC(C)(C)CCCC(C)CCN1CCC(n2cc(C(C)(C)N)nn2)CC1 (centres undefined),-4
O=C(CSc1nnc(-c2ccc(C(F)(F)F)cn2)o1)Nc1cccc(Cl)c1,-15
O=C(NO)c1ccc(C(F)(F)F)cc1,-10
Clc1ccc(SCc2nc3ncccn3c2Br)cc1,5
CN1CCC(=C2c3ccccc3Sc3ccccc32)CC1,-13
O=C(NNc1nc2cc(F)ccc2n2cccc12)c1cnccn1,-2
CCCCc1cc(=O)[nH]c(-c2ccc(CN(C)CCOC)cc2)n1,0
O=C(O)CNC(=O)c1cn(-c2ccccc2)nc1-c1ccc(Cl)s1,-15
NS(=O)(=O)c1ccc(F)cc1,-22
CCOC(=O)c1c(NC(=O)c2ccccc2F)sc(C(=O)N2CCCCC2)c1C,-12
COc1cc(CNC(=O)CCCCC=CC(C)C)ccc1O,-64
CCOc1cc2oc(=O)cc(-c3ccccc3)c2cc1Cl,9
Cc1[nH]c2ccccc2c1C(c1ccncc1)N1CCN(C)CC1 (centres undefined),-5

# Single values from the list:
# Result of `CCCCc1cc(=O)[nH]c(-c2ccc(CN(C)CCOC)cc2)n1` under HCMV UL50-53 inh: 0
# Result of `NS(=O)(=O)c1ccc(F)cc1` under HCMV UL50-53 inh: -22
# Result of `Cc1[nH]c2ccccc2c1C(c1ccncc1)N1CCN(C)CC1` (centres undefined) under HCMV UL50-53 inh: -5
# Result of `CN1CCC(=C2c3ccccc3Sc3ccccc32)CC1` under HCMV UL50-53 inh: -13

# (continued)
SMILES,HCMV UL50-53 inh
CCCc1c(C)nn(-c2ncccc2N)c1C,2
CCCCCCCNS(=O)(=O)c1cccc2c(Cl)cccc12,-13
CC(=O)NC(C)(C)C(=O)N1CCC[C@H]1C(=O)NC(C)(C)C(=O)N[C@@H](C)C(=O)NC(C)(C)C(=O)N[C@@H](C)C(=O)N[C@@H](CCC(N)=O)C(=O)NC(C)(C)C(=O)N[C@H](C(=O)NC(C)(C)C(=O)NCC(=O)N[C@@H](CC(C)C)C(=O)NC(C)(C)C(=O)N1CCC[C@H]1C(=O)N[C@H](C(=O)NC(C)(C)C(=O)NC(C)(C)C(=O)N[C@@H](CCC(=O)O)C(=O)N[C@@H](CCC(N)=O)C(=O)N[C@H](CO)Cc1ccccc1)C(C)C)C(C)C,5
COc1ccccc1NC(=O)c1cc(=O)c2ccccc2o1,-19
NCC(O)COCC1COc2ccccc2O1 (centres undefined),4
COc1ccc2cc(S(=O)(=O)N3CCN(C)CC3)ccc2c1,-12
CC(=O)O[C@]1(C(C)=O)CC[C@H]2[C@@H]3C[C@H](C)C4=CC(=O)C=C[C@]4(C)[C@@]3(F)[C@H](O)C[C@@]21C,-14
Cc1ccc(O)c(-c2cc(-c3ncc(Cl)n3C)[nH]n2)c1,-27
CC(=O)Nc1ccc(O)c(-c2nc3ccccc3s2)c1,15
CCN1CCN(Cc2ccc(NC(=O)c3ccc(C)c(NC(=O)c4cccc(-c5cn[nH]c(=O)c5)c4)c3)cc2C(F)(F)F)CC1,0
O=C(COC(=O)C1CCN(S(=O)(=O)c2cccs2)CC1)c1ccccc1,-11
COc1cc2c(cc1OC)[C@@H]1Cc3ccc(OC)c(OC)c3CN1CC2,-14
OC(COc1ccc(Cl)cc1)CN1CCN(c2ccccc2)CC1 (centres undefined),0
Cc1cccc(NC(=O)CCS(=O)(=O)c2ccccc2)c1,-9
Cc1ccc(-c2nc(-c3ccc(Cl)cc3)cs2)cc1F,0
CN(C)CCCNc1ccc(-c2cc(Nc3cccc(Cl)c3)ncn2)cn1,-14
CCCCC[C@H](O)/C=C/[C@H]1C=CC(=O)[C@H]1C/C=C\CCCC(=O)O,-17&-17
Cc1nn(-c2ccccc2)c(C)c1Cc1ccc(O)cc1,-6
CCn1c(O)c(C2=c3ccccc3=NC2=O)sc1=S,-1
CC/C(=C\C(=N/O)C(N)=O)C(C)[N+](=O)[O-] (centres undefined),-10&-10
CC(SC1=NCCN1S(C)(=O)=O)c1ccccc1 (centres undefined),10&2
CN(C)CCCO[C@@H]1[C@H]2OC(C)(C)O[C@H]2O[C@@H]1[C@H](O)CO,-20
CCOc1ccc(/C=C/C(=O)CCC(=O)O)cc1,0
O=C(Nc1nc(-c2cc3ccccc3oc2=O)cs1)c1c(F)cccc1F,-8
COc1cc(N2CCCC(c3nc(C(C)C)no3)C2)nc(N)n1 (centres undefined),0
CC(C)n1c(CCCO)nc2ccccc21,2
Cn1cc(SC(=N)N)c2ccccc21,-16
Cn1cc(SCC(=O)N2CCc3ccccc32)c2ccccc21,-23
CCCCOC(=O)c1cc2c(cn1)[nH]c1ccccc12,-10
COc1cc2c(cc1OC)-c1nnc(C)n1C(C)(C)C2,-2
N#Cc1c(-c2ccccc2)cc(-c2cc(Br)ccc2O)[nH]c1=O,-45
CC(C)C(=O)Nc1ncc(-c2cc(C(F)F)nn2-c2c(Cl)cccc2Cl)s1,-17&-29&-24
C[N+]1(C)[C@@H]2CC[C@H]1CC(OC(=O)C(O)c1ccccc1)C2 (some centres undefined),-1
Cc1cc(C)n2cc(CN3CCOCC3)nc2n1,0
COc1ccc(C(=O)Nc2ccc(-n3nncc3C(C)(C)C)cc2)cc1,2
Cc1nc2ccc(-c3ncnc4sccc34)cc2c(=O)[nH]1,-19&-19
CCC(CC)CN1CCC(NS(C)(=O)=O)CC1,-18
CCOC(=O)O[C@]1(C(=O)COC(=O)CC)CC[C@H]2[C@@H]3CCC4=CC(=O)C=C[C@]4(C)[C@H]3[C@@H](O)C[C@@]21C,-16
CCCc1cc(C(=O)Cc2ccc3c(c2)OCO3)c(O)cc1O,-23
Cc1cccc(CC(=O)N2CCc3c2ccc(-c2cn(C)c4ncnc(N)c24)c3F)n1,-9

# Overlap with the part before: 2 entries, then new ones.
SMILES,HCMV UL50-53 inh
CCCc1cc(C(=O)Cc2ccc3c(c2)OCO3)c(O)cc1O,-23
Cc1cccc(CC(=O)N2CCc3c2ccc(-c2cn(C)c4ncnc(N)c24)c3F)n1,-9
COc1ccc(C(=O)NCCCc2nc3ccccc3n2C)cc1OC,-6
CCn1c(NN)nc2ccccc21,-5
Cc1ccc(-c2csc(NC(=O)c3nc4ccccc4s3)n2)o1,14
O=C(CN1C(=O)/C(=C/c2ccccc2)SC1=S)Nc1ccccc1,-17
CC1(C)SC2C(NC(=O)C(NC(=O)N3CCNC3=O)c3ccccc3)C(=O)N2C1C(=O)O (centres undefined),-14
CCSc1nnc(Cn2c(=O)sc3ccccc32)n1-c1ccccc1,-9
CC1(C)C2CCC1(CS(=O)(=O)O)C(=O)/C2=C\c1ccc(/C=C2\C(=O)C3(CS(=O)(=O)O)CCC2C3(C)C)cc1,-82
CSc1nc2cc(NC(=O)c3cccs3)ccc2s1,3
CCN1CCN(C(=O)c2cc(-c3cc(C)cs3)cc(S(=O)(=O)N3CCOCC3)c2)CC1,-11
CN1CCN(C(c2ccccn2)c2cc(Cl)c3cccnc3c2O)CC1 (centres undefined),-18
COc1ccc(CNC(=O)c2ccc(CN3C(C)=NS(=O)(=O)c4ccccc43)cc2)cc1,-6
O=C(O)CCn1c(-c2ccccc2)cc2c1CCCC2=O,-3
CN1C(=O)/C(=C\c2ccc(-c3ccccc3)o2)SC1=S,0
CC(C)c1ccc(C(CC(=O)O)NC(=O)C2CCCCC2)cc1 (centres undefined),-8
CCCCCCOC(=O)[C@]1(O)C[C@@H]2O[C@@]1(C)n1c3ccccc3c3c4c(c5c6ccccc6n2c5c31)C(=O)NC4,-28
CC(=O)Nc1cccc(Oc2cnc3ccccc3n2)c1,-2
CC(C)(C)NC(=O)C1CN(Cc2cccnc2)CCN1CC(O)CC(Cc1ccccc1)C(=O)NC1c2ccccc2CC1O (centres undefined),-19
O=C(O)Cc1cc(=O)oc2cc(O)ccc12,-4
CCn1c(CCCNC(=O)c2ccc(Cl)cc2)nc2ccccc21,-12
c1ccc(SCc2cn3cccnc3n2)nc1,0
Cc1cccc(C(=O)O)c1O,-55
Cc1nc(-c2ccccc2)sc1C(=O)Nc1ccccc1,-10
CCC(=O)NC1CCc2cccc(OC)c2C1 (centres undefined),0
COc1cc(F)c(F)c(Nc2ccc(I)cc2F)c1NS(=O)(=O)C1(CC(O)CO)CC1 (centres undefined),-8
COC(=O)CSC1=C(C#N)C(c2ccc(OCc3ccccc3)cc2)CC(=O)N1 (centres undefined),-16
N#Cc1ccccc1N1C(=O)C=CC1=O,-2
O=C(NCCSc1c[nH]c2ccccc12)c1ccccc1,-9
COc1ccc(/C=C/C(=O)NCCn2ccc3ccccc32)cc1OC,-3
COc1cc2c(cc1OC)-c1cc3nc4ccccc4nc3n1C(C)(C)C2,-6
CCOC(=O)C1=C(C)NC(SC)=C(C#N)C1CC(C)C (centres undefined),-6
O=C(CCn1c(=O)sc2ccccc21)NCc1ccccc1,3
Cc1nc(NC(=O)NCc2cccc(Cl)c2)nn1C,10&10
Cc1ccc(C)c(S(=O)(=O)Nc2ccc(O)c(Cl)c2)c1,2
COc1ccc(O)cc1,-8&-4
CC(C)OC(=O)c1cc2c(OCC(O)CNC(C)(C)C)cccc2[nH]1 (centres undefined),-14
CN(C)c1ccc(/C=C/C=N/c2sccc2C#N)cc1,-6
Brc1ccc(OCc2nnc3n2CCCCC3)cc1,-13
O=C(O)CCCC(=O)Nc1nc2ccccc2s1,-3
CCCSc1nc2c(cnn2-c2ccccc2)c(=O)[nH]1,22
O=C(O)c1c2ccccc2cc2ccccc12,-54
CCOC(=O)O[C@]1(C(=O)OCCl)CCC2C3CCC4=CC(=O)C=C[C@]4(C)C3C(O)C[C@@]21C (some centres undefined),-59
O=C(O)CSc1cccc2cccc(C(=O)O)c12,-28
Cc1ccc2cc(CCNC(=O)/C=C\c3ccccc3)c(=O)[nH]c2c1,5
CCCC(=O)NCc1nc2ccccc2n1Cc1cc(C)ccc1C,-9
C=C1CC[C@H](O)C/C1=C/C=C1\CCC[C@]2(C)[C@@H]([C@H](C)CCCC(C)C)CC[C@@H]12,-9
CC(C)n1c(NCCO)nc2ccccc21,-11
COc1ccc(CSc2nnc(-c3ccc4c(c3)OCO4)o2)cc1F,-20
O=C(CSc1cnc2ccccc2n1)NC1CCS(=O)(=O)C1 (centres undefined),-26
O=C(O)CCc1nc2sc3c(c2c(=O)[nH]1)CCCC3,9
COc1ccccc1N1CCN(CCC(=O)Nc2ccc3c(c2)CCC3)CC1,-6
Cc1ncc(CSSCc2cnc(C)c(O)c2CO)c(CO)c1O,-80
CC(=O)Nc1ccc2c(c1)sc(=NC(=O)c1ccco1)n2C,9

# Gathered by group, the entries above containing an NH in an aromatic ring.
SMILES,HCMV UL50-53 inh
Cc1cc(C)c(S(=O)(=O)Cc2ccccc2)c(=O)[nH]1,-9
Cc1ccc(CNC(=O)N2CC=C(c3c[nH]c4ccccc34)CC2)cc1,6
CCCCc1cc(=O)[nH]c(-c2ccc(CN(C)CCOC)cc2)n1,0
Cc1[nH]c2ccccc2c1C(c1ccncc1)N1CCN(C)CC1 (centres undefined),-5
Cc1ccc(O)c(-c2cc(-c3ncc(Cl)n3C)[nH]n2)c1,-27
CCN1CCN(Cc2ccc(NC(=O)c3ccc(C)c(NC(=O)c4cccc(-c5cn[nH]c(=O)c5)c4)c3)cc2C(F)(F)F)CC1,0
CCCCOC(=O)c1cc2c(cn1)[nH]c1ccccc12,-10
N#Cc1c(-c2ccccc2)cc(-c2cc(Br)ccc2O)[nH]c1=O,-45
Cc1nc2ccc(-c3ncnc4sccc34)cc2c(=O)[nH]1,-19&-19
O=C(NCCSc1c[nH]c2ccccc12)c1ccccc1,-9
CC(C)OC(=O)c1cc2c(OCC(O)CNC(C)(C)C)cccc2[nH]1 (centres undefined),-14
CCCSc1nc2c(cnn2-c2ccccc2)c(=O)[nH]1,22
Cc1ccc2cc(CCNC(=O)/C=C\c3ccccc3)c(=O)[nH]c2c1,5
O=C(O)CCc1nc2sc3c(c2c(=O)[nH]1)CCCC3,9
